Menin MLL FP FL: menin-MLL binding inhibition, fluorescein peptide; Fluorescence polarization, fluorescein-MLL peptide displacement from menin; FP activity change, % at 61.4 µM; 290,000 tested, under 10 active; inconclusive = falling polarisation curve, or a change in total fluorescence; inactive = total fluorescence flat and polarisation flat or rising; no compound was filed as active; the % refers to the polarisation; negative = inhibition;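 note: % of control where 0% means no effect; inhibitors lower the polarisation; unlabelled MLL peptide was the positive control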
TRPV1 PAM: enhances activation of the human vanilloid receptor TRPV1 | Q8NER1 | TRPV1-expressing cells, Fluo-8 calcium influx, capsaicin EC20 potentiation; host cell line not named in the record; control for the full effect not named in the record | potentiation, % at 8.33 µM | 320,000 compounds, 0.02% hits | AID 540277; active means potentiation above 80%; inconclusive means 30% to 80%; inactive means below 30%; note: 0% is about no effect
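TRPV1-expressing cells were cultured overnight at 35.5C and loaded with Fluo-8 calcium dye for 40 to 90 min at room temperature. After a 10 s baseline, compound was added and calcium influx was read kinetically for 3 min (ex 480/em 520 nm).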
gsp ag: gsp mutant agonism | gsp mutant cells, cAMP HTRF, 30 min; control for the full effect not named in the record | Potency, µM (titrated, usually from 76.9 µM), without a hit: top-dose activation (cAMP increase), most hits filed as activators | 340,000 compounds, 0.13% hits | AID 624287; active = well fitted activation curve with a large enough effect; inconclusive = small, poorly fitted or top-dose-only effect, or another doubt; inactive = no such curve, though single readings can be large or run the other way; cell line not stated here;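 note: phosphodiesterase inhibitor Ro 20-1724 added with compounds to block cAMP breakdown; potency is the fitted concentration of half-maximal effect; nearly all actives have a fitted effect of over 60% in size; about a fifth of the inactives were tested at one dose only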
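Cells in DMEM/10% FBS with G418 were pretreated with compounds in DMSO plus […] (300 uM stock) for 30 min at 37C. cAMP was measured by HTRF (cAMP-d2 plus anti-cAMP antibody-K) after 30 min at room temperature.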
TRPML1 inh: blocks the human TRPML1 channel; activity change, negative = inhibition, % (test concentration not listed); Q9GZU1; 390,000 compounds, 0.02% hits; TRPML1-inducible cells, Ca2+ dye fluorescence, FDSS; hits give low values; inhibition of EC80 agonist-evoked calcium signal; in the data active means activity change below about -50%; inconclusive means about -30% to -50%; inactive means above about -30%;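 note: stimulus is agonist 54-4 at its EC80 concentration; % is set by controls: 0 for no effect and ±100 for the full control effect; compound concentration not given in the record; the text of the record puts the active cut at -80%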
Target sequence (Q9GZU1 whole entry, looked up): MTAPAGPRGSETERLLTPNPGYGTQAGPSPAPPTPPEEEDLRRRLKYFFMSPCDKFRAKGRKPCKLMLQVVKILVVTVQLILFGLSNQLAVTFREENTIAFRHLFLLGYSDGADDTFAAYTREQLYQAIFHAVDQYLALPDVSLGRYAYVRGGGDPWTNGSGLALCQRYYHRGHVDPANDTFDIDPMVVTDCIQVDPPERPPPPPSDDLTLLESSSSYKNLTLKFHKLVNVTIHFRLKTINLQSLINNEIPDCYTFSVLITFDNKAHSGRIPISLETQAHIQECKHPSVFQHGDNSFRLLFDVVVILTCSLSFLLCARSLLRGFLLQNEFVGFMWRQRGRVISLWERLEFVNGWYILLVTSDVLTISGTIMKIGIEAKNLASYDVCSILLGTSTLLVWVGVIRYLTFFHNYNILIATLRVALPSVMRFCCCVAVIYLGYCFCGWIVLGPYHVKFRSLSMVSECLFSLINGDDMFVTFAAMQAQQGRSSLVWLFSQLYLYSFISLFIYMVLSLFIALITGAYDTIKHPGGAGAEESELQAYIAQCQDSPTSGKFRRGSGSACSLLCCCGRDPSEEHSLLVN
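Tet-induced TRPML1-DL cells loaded with Ca8 no-wash calcium dye were read kinetically on FDSS. Compound addition was followed by EC80 agonist 54-4 (4 uM final); inhibition was read over 110 s.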
gsp antagonist: antagonizes gsp, the McCune-Albright syndrome mutation; gsp-mutant cells, cAMP HTRF, 30 min; control for the full effect not named in the record; Potency, µM (titrated, usually from 76.9 µM), for the others: top-dose activity change, negative = inhibition, most hits filed as inhibitors; 340,000 compounds, 0.4% hits; active = falling curve of any shape with a large fitted effect; inconclusive = falling curve, mostly with a smaller effect; inactive = flat or rising curve; cell line not stated here;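 note: intracellular cAMP measured with PDE inhibitor Ro 20-1724 present during compound exposure; potency is the fitted concentration of half-maximal effect; % is set by controls: 0 for no effect and ±100 for the full control effect; nearly all actives have a fitted effect of over 65% in size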
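Measurement of cellular cAMP by homogeneous time-resolved fluorescence following a 30 min compound exposure at 37C. The PDE inhibitor […] was present throughout; the assay buffer was DPBS with 0.05% BSA and 0.005% Tween 20.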
ClpP mod: qHTS Assay for Activators of ClpP; ATP-dependent Clp protease proteolytic subunit (Bacillus subtilis (strain 168)), P80244; purified B. subtilis ClpP, FRET peptide cleavage, 20 min; Potency, µM (titrated, usually from 57.5 µM), inactives show at the highest dose activity change, negative = active; 340,000 compounds, 1.9% hits; active = well fitted falling curve with a large enough effect; inconclusive = small, poorly fitted or top-dose-only effect; inactive = no such curve, though single readings can be large or run the other way; note: potency is the fitted concentration of half-maximal effect; the source files actives as falling curves though it sought activators and does not explain the sign; nearly all actives have a fitted effect of over 65% in size; many hits overshoot -100%
Target sequence (P80244 whole entry, looked up): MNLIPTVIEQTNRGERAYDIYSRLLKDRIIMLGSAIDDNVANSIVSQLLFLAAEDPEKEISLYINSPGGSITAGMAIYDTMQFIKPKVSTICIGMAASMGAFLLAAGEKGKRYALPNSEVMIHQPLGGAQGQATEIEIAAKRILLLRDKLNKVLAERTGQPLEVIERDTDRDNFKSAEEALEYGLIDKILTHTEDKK
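Purified B. subtilis ClpP, 10 microg/mL final in Tris/HCl pH8 with KCl, BSA, glycerol and Tween-20, cleaved an Abz/nitrotyrosine-quenched decapeptide. Fluorescence (ex 320, em 430) was read at 0 and 20 min at room temperature. Delta was normalized to 5.8 microM ADEP and DMSO/no-enzyme controls.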
Sfp PPTase inh: blocks B. subtilis Sfp PPTase activity | Potency, µM, inactives show max response, negative = inhibition, most hits filed as inhibitors | 310,000 compounds, 3.5% hits | Q9F4F7 | Biochemical Sfp PPTase activity, qHTS; active = well fitted inhibition curve with a large enough effect; inconclusive = small, poorly fitted or top-dose-only effect, or another doubt; inactive = no such curve, though single readings can be large or run the other way;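 note: the enzyme is Sfp with the accession as filed and its product quenches rhodamine fluorescence; potency is the fitted concentration of half-maximal effect; 0% = enzyme reaction without inhibitor and -100% = no enzyme wells; top concentration of the series not given in the record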
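Buffer: 50 mM Hepes-Na pH 7.6, 10 mM MgCl2, 0.01% Nonidet P-40, 0.01% BSA. Enzyme 15 nM, pre-exposed to compound 15 min; substrates then added and fluorescence change tracked over 30 min.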
The depositor's hits bear a star; ? = inconclusive; · = no result given; [ ] = remark or other dose.

no. | Compound | Menin MLL FP FL | TRPV1 PAM | gsp ag | TRPML1 inh | gsp antagonist | ClpP mod | Sfp PPTase inh
1 | O=C(NC(=S)Nc1nc2c(s1)CCCC2)c1ccccc1 | 2.8 | 3 | 2% | 3 | -4% | -1.5% | 8%
2 | CCCC(=O)Nc1sc(Cc2ccccc2)c(C)c1C(N)=O | 8.3 | -23 | -2% | 18 | -8% | -1.3% | 13µM*
3 | CC(C)C(C)N(Cc1ccc(C(=O)O)cc1)C(=O)c1ccc2ccccc2n1 (configuration not stated) | · | · | 6% | -7 | ? | · | ·
4 | CCC(SC1=Nc2ccccc2C2=NC(CC(C)C)C(=O)N12)C(=O)Nc1ccc2c(c1)OCO2 (configuration not stated) | 0.6 | 6 | -30% | 23 | -12% | -0.4% | ?
5 | CCOP(=O)(OCC)C(Nc1ccc(OC)cc1)c1ccco1 (configuration not stated) | -1.6 | 2 | -35%[inhibitor] | 9 | 4% | -0.1% | 0%
6 | CC1=C(C(=O)Nc2ccc(C)cn2)C(c2cnn(C)c2)C2=C(CCCC2=O)N1 (configuration not stated) | -0.2 | 9 | 10% | 6 | 3% | 6.3µM* | 16%
7 | CCn1c(SCC(=O)Nc2cc(C)on2)nnc1-c1ccc(S(=O)(=O)N2CCCC2)cc1 | -0.6 | 20 | -33%[inhibitor] | -1 | ? | -8.7% | 15%
8 | Cc1ccc(S(=O)(=O)/C=C/c2ccccc2)cc1 | 1.4 | 10 | -18% | -3 | 3% | -1.5% | 11%
9 | O=c1[nH]c2ccc(S(=O)(=O)N3CCCCC3)cc2o1 | 5.4 | 3 | 1% | 10 | -4% | -1.2% | -2%
10 | O=C(CN(C(=O)CCC(=O)Nc1nccs1)c1ccc(F)cc1)NCc1ccc(F)cc1 | · | 4 | 7%[15.4 µM] | 18 | -10% | 0.9% | 2%
11 | CCOC(=O)N/N=C/c1ccccc1OCc1ccc(Cl)cc1 | 0.9 | -2 | -27% | 2 | 8% | 0.3% | 2%
12 | COc1ccc(N(CC(=O)NCc2ccc(F)cc2)C(=O)CCC(=O)Nc2nccs2)cc1 | -6.3 | -1 | -57%[inhibitor] | 39 | 1% | · | -11%
13 | COc1ccc(NC(=O)Nc2cccc3ccccc23)cc1OC | · | -6 | 3% | 36 | -7% | -9.7% | -7%
14 | CC(=O)Nc1ccc(S(=O)(=O)NCCCCNS(=O)(=O)c2ccc(NC(C)=O)cc2)cc1 | -1.3 | -7 | -26%[15.4 µM] | -7 | 10% | 0.1% | 13%
15 | CCOC(=O)N1CCC(N2CCN(S(=O)(=O)CC)CC2)CC1 | -0.7 | 0 | -2% | -3 | 1% | 0.6% | -22%
16 | O=C(c1ccc(Br)cc1)C1CCc2occc2C1=O (configuration not stated) | 2.8 | -16 | -5% | 5 | -11% | -2.8% | -12%
17 | Cc1cccc(Cn2cnc3c(nnn3Cc3ccccc3F)c2=O)c1 | -0.9 | 7 | -24% | -15 | 14% | 1.2% | -6%
18 | Cn1nc(-c2ccccc2)c(/C=N/O)c1Cl | 1.5 | 14 | ? | -10 | 7% | · | 14%
19 | O=C(Nc1ccccc1C(=O)N1CCCCC1)C1CCCCC1 | 1.5 | -18 | 2% | -8 | 12% | 1.4% | 7%
20 | CCc1cc(=O)oc2cc(C)cc(OCC(=O)N3CCC[C@@H]3C(=O)O)c12 | -7.7 | 3 | · | · | 11% | 4.5% | 13%
21 | O=C(NCC(c1cccs1)N1CCOCC1)c1ccccc1NS(=O)(=O)c1ccc(Br)cc1 (configuration not stated) | 0.2 | 0 | 0%[15.4 µM] | 15 | ? | 2.1% | -2%
22 | S=c1[nH]nc(-c2ccccc2)n1/N=C/c1ccc(Cl)cc1 | -0.5 | 4 | -2% | 4 | ? | -0.5% | 2%
23 | C#Cc1cccc(C(=O)N2CCCC(CCC(=O)NCc3ccccc3F)C2)c1 (configuration not stated) | · | · | 5% | -24 | -6% | 1.1% | ·
24 | Cc1cc(Cl)nc(-c2ccccc2)n1 | -5.7 | 5 | -72% | ? | 5% | 0.2% | 7%

From entry 23 as far as 24, as listed above:
no. | Compound | Menin MLL FP FL | TRPV1 PAM | gsp ag | TRPML1 inh | gsp antagonist | ClpP mod | Sfp PPTase inh
23 | C#Cc1cccc(C(=O)N2CCCC(CCC(=O)NCc3ccccc3F)C2)c1 (configuration not stated) | · | · | 5% | -24 | -6% | 1.1% | ·
24 | Cc1cc(Cl)nc(-c2ccccc2)n1 | -5.7 | 5 | -72% | ? | 5% | 0.2% | 7%

(continued)
no. | Compound | Menin MLL FP FL | TRPV1 PAM | gsp ag | TRPML1 inh | gsp antagonist | ClpP mod | Sfp PPTase inh
25 | CN(C)C(CNC(=O)c1cc(Br)c(Br)s1)c1ccco1 (configuration not stated) | · | · | -58%[inhibitor] | -3 | · | -6.3% | ·
26 | COc1ccccc1CNC(=O)c1cc(C2CC2)nc2c1cnn2C(C)C | · | -8 | ? | 46 | -10% | -22% | ·
27 | O=C(NC1=NCCS1)c1ccc(Cl)c(S(=O)(=O)N2CCCCC2)c1 | 1.3 | -13 | 10% | 11 | -24% | -0.5% | 14%
28 | COc1cc2c(cc1[N+](=O)[O-])n(C(C)C)c(=O)n2C(C)C | -1.6 | 0 | -13% | 13 | 6% | -0.6% | 17%
29 | O=C(Cc1ccc(NS(=O)(=O)c2ccc(F)cc2)cc1)NCc1ccccc1 | -0.9 | 7 | -8% | 7 | -5% | 1.8% | 11%
30 | COc1ccc2c(c1)C(c1cccs1)=NNC(c1cccnc1)=N2 | -5.4 | -7 | -19% | 4 | -10% | · | 0%
31 | O=S(=O)(Nc1ncn[nH]1)c1ccc(Cl)cc1 | 4.8 | 7 | 10%[15.4 µM] | 6 | -1% | -0.7% | -2%
32 | CCOc1ccc(NC(=O)CSc2nnc(-c3ccccn3)n2N)cc1 | 2.8 | 6 | 8% | 10 | 6% | -1.5% | 4%
33 | COc1ccc(CC(=O)NCc2nnc(SCC(=O)c3ccc(OC)cc3)n2C)cc1 | -4.2 | -1 | 14% | 6 | -8% | · | 16%
34 | COc1ccc(OC(=O)COc2cccc(C)c2)cc1 | -0.1 | 1 | 1% | -2 | 9% | · | 6%
35 | CCn1c(SCc2cccnc2)nnc1-c1c[nH]c2ccccc12 | -1.7 | 8 | -36%[inhibitor] | 1 | -8% | 1.1% | 15%
36 | O=C(O)c1ccccc1Oc1ccc(Oc2ccccc2)cc1 | 9.5 | 5 | 5% | -2 | 2% | -0.4% | 5%

Profiles, looked up by structure. Screens in order: Menin MLL FP FL, TRPV1 PAM, gsp ag, TRPML1 inh, gsp antagonist, ClpP mod, Sfp PPTase inh
Record of COc1ccc(CC(=O)NCc2nnc(SCC(=O)c3ccc(OC)cc3)n2C)cc1 → -4.2, -1, 14%, 6, -8%, ·, 16%
Record of COc1cc2c(cc1[N+](=O)[O-])n(C(C)C)c(=O)n2C(C)C → -1.6, 0, -13%, 13, 6%, -0.6%, 17%

Carrying on.
no. | Compound | Menin MLL FP FL | TRPV1 PAM | gsp ag | TRPML1 inh | gsp antagonist | ClpP mod | Sfp PPTase inh
37 | CN(C(=O)CN1CCC(NC(=O)c2ccccc2Br)CC1)C1CCCCC1 | 7.0 | 5 | ? | -8 | 4% | · | 19%
38 | O=C(CN1C(=O)c2ccc([N+](=O)[O-])cc2C1=O)NCc1ccc(C(=O)O)cc1 | 1.0 | 6 | -6%[15.4 µM] | 6 | 13% | 0.7% | 13%
39 | COc1ccc(N2C(=O)NC(NS(=O)(=O)c3ccccc3)(C(F)(F)F)C2=O)cc1 (configuration not stated) | 2.3 | 10 | 1% | 3 | 6% | 1.8% | 11%
40 | COc1cccc(-c2csc(N3CCN(C(=S)Nc4cccc(Cl)c4)CC3)n2)c1 | 7.8 | 0 | ? | 33 | 3% | -2.0% | 22%
41 | Cc1nc(SC(C)C(=O)Nc2cccc(C(F)(F)F)c2)c2c(C)c(C(=O)O)sc2n1 (configuration not stated) | 1.3 | -5 | 8% | 15 | ? | -4.9% | -3%
42 | O=C1/C(=C/c2ccncc2)CCC/C1=C\c1ccncc1 | 2.8 | 16 | 15% | · | -31% | 0.1% | ?
43 | CCc1ccc(NC(=O)CSc2nc3cc(C(=O)OC)ccc3c(=O)n2CC2CCCO2)cc1 (configuration not stated) | 5.8 | -3 | 15% | 14 | 22% | -11% | 15%
44 | CC(=O)Nc1ccc(OCC(O)Cn2ccnc2C)cc1 (configuration not stated) | 4.4 | 2 | -39%[inhibitor] | -3 | 15% | -0.4% | 23%
45 | COC(=O)c1sc(-c2ccccc2)cc1NC(=O)C1CC1 | 2.1 | -6 | 11%[15.4 µM] | -5 | -3% | · | 45µM*
46 | COCCOC(=O)C1=C(C)NC(=O)NC1c1c(OC)ncnc1OC (configuration not stated) | 1.7 | 3 | -1% | -6 | -2% | -1.1% | 3%
47 | Cc1ccc(S(=O)(=O)Nc2c(C)cc([N+](=O)[O-])cc2C)cc1 | · | · | 7% | 13 | -18% | -3.0% | ·
48 | Cc1c(C(=O)N2CCOCC2)sc(NC(=O)c2ccc3c(c2)OCO3)c1C#N | 18 | 0 | -41%[inhibitor] | 25 | -2% | -1.7% | 23%

Results in sequence from above:
gsp ag, nos. 17 to 26, in order: -24%, ?, 2%, ·, 0%[15.4 µM], -2%, 5%, -72%, -58%[inhibitor], ?
ClpP mod, nos. 17 to 26, in order: 1.2%, ·, 1.4%, 4.5%, 2.1%, -0.5%, 1.1%, 0.2%, -6.3%, -22%

Later entries:
no. | Compound | Menin MLL FP FL | TRPV1 PAM | gsp ag | TRPML1 inh | gsp antagonist | ClpP mod | Sfp PPTase inh
49 | CCOC(=O)[C@H]1[C@H]2COc3ccc(Br)cc3[C@H]2N2C(=O)CN(Cc3ccc(C)cc3)C(=O)[C@@]12C | · | · | · | -11 | -16% | -7.5% | ·
50 | O=C(CN1CCN(c2ccccn2)CC1)Nc1cc(C(F)(F)F)ccc1Cl | -0.4 | 12 | -2% | 13 | -21% | 1.1% | -15%
51 | c1ccc(OCCCn2ccnc2)cc1 | -0.2 | 3 | -58%[inhibitor] | -21 | 12% | · | -5%
52 | COc1ccc2c(c1)CCC1(C)CC(=O)C(Br)=C21 (configuration not stated) | · | · | ? | 16 | · | 4.0% | ·

Source: PubChem
